# Screening results deposited in PubChem BioAssay by several laboratories.
# UCH37 inh: blocks the human deubiquitinase UCH37; Q9Y5K5; purified proteasome/UCH37, Ub-AMC cleavage fluorescence; inhibition, % (concentration not given with the values); actives 0.33% (n = 330,000); AID 588478;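 active = mean of two replicates above 20%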;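 also: 0% = compound-free wells with enzyme and 100% = wells lacking proteasome; stock transfer was 100 nL into about 20 µL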
#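 Test system – human UCH37 enzyme supplied as purified proteasome complex · Incubation – 30 min preincubation with enzyme, 25 min cleavage at room temperature · Detection – AMC fluorescence from Ub-AMC cleavage, excitation 355 nm, emission 460 nm · Benchmarks – no-proteasome wells (full inhibition) and compound-free wells (no inhibition)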
# LANA-H2B inh: blocks KSHV LANA binding to histone H2A/H2B. inhibition, % (no concentration beside the values). actives 0.6% (n = 320,000). Q9QR71. AID 2629. cell-free LANA-H2A/H2B peptide, fluorescence polarization; in the data active = inhibition mostly above about 10%, no sharp cut-off; inactive = mostly below about 6.7%;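 also: stock transfer was 7.5 nL into about 10 µL; 0% = median of vehicle wells and 100% = median of positive control wells; one replicate is shown; the record names a cut of 25% in any replicate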
# Beta2AR agonist: agonists of human beta-2 adrenergic receptor inducing internalization | P07550 | Am2.2-beta2AR cells, FAP receptor internalization, flow cytometry; reference of the scale not given here | response, % (no concentration beside the values) | actives 0.43% (n = 340,000);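 active = response above a set limit, near 3 SD of response in nonfluorescent compounds, cut at about 42% in these data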;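 also: stock transfer was 100 nL into about 11 µL; a reference agonist was the positive control; negative values mostly stem from fluorescent compounds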
# Target sequence (P07550 whole entry, looked up): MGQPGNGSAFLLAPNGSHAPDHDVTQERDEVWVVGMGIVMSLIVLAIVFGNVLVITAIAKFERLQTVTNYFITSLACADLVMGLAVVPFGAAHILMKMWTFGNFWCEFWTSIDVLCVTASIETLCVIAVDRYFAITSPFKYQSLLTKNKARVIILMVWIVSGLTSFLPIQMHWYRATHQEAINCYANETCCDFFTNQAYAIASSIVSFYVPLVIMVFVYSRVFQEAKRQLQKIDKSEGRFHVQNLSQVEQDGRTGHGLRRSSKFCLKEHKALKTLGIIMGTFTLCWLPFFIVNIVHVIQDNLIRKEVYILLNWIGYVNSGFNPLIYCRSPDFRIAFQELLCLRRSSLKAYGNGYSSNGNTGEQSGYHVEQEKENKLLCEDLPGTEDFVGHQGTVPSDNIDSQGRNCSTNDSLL
# HNF4A DNA FP: change in binding of human HNF4 alpha to DNA; HNF4a-FITC DNA binding, fluorescence polarization, 1 h; activity change, % at 10 µM; actives 0.3% (n = 360,000); P41235; AID 1224865; in the data active = activity change above about 30%, passing the limit was not always enough;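 also: controls were the assay level and a saturating level of protein; the project sought stronger binding though the title names inhibitors; some compounds called inactive have numbers as strong as hits; positive values seem to mean higher polarization but the record does not say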
# Target sequence (P41235 whole entry, looked up): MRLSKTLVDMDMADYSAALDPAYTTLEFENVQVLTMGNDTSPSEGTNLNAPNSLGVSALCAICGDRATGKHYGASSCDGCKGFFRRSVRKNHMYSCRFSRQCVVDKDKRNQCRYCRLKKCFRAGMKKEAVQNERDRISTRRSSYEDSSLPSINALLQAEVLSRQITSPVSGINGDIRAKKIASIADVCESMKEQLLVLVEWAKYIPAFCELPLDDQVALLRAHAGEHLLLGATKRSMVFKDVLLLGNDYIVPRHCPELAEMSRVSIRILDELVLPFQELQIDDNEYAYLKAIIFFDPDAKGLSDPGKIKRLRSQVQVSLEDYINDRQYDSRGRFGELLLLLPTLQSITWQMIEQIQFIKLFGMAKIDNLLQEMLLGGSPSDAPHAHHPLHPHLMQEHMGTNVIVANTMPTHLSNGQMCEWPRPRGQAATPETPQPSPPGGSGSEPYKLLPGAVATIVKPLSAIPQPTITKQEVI
# A1 inh: inhibitors of the anti-apoptotic protein A1, read as caspase activation. AID 2462. actives 0.066% (n = 330,000). MEF A1-2A-BIM cells, Caspase-Glo 3/7 luminescence, 3 h; percent of clofoctol response, vehicle zero. caspase activation, % (test concentration not listed);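 active = over half of replicate activation scores above 10%, or exactly half above 10 with the replicate mean above 10; inconclusive = replicate mean below 10 yet half the replicates above 10; inactive = over half of replicates below 10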;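 also: wells of about 30 µL received 50 nL stock; many hits fall short of the cut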
# Vif A3G: HIV-1 Vif–A3G interaction blockers – biochemical, TR-FRET, GST-Vif 1-94, biotin-A3G peptide, dose response retest, primary screen (AID 1117319). inhibition, %; hits with a dose series show IC50 in µM. actives 0.57% (n = 260,000). TR-FRET GST-Vif / biotin-A3G peptide binding; higher % means a stronger effect; test concentration not given here; strong numbers were not always called active;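 active = above the screen mean plus three standard deviations and confirmed in dose response; inconclusive = results disagree or hit not tested in dose response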;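 also: Vif residues 1-94 fused to GST binding biotinylated APOBEC3G peptide 110-148; 0% = full assay without inhibitor and 100% = GST in place of GST-Vif; retest series ran down from 100 µM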
# Ecoli growth: blocks Escherichia coli growth; OD600, 23 h; active compounds read low; OD600 absorbance (no concentration beside the values); actives 0.21% (n = 330,000); AID 1053175;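 active = OD600 absorbance below the run mean of sample wells minus 3.6 SD, in any replicate, cut at about 0.56 in these data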;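 also: stock transfer was 300 nL into about 60 µL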
# The depositor's hits bear a star; ? = inconclusive; nt = not tested or not shown.
SMILES,UCH37 inh,LANA-H2B inh,Beta2AR agonist,HNF4A DNA FP,A1 inh,Vif A3G,Ecoli growth
CCOCCCNC(=O)c1ccccc1SCC,-3.7,-0.4,-13,1.8,1.3,2%,0.71
CN(Cc1ccccc1)C(=O)COC(=O)C1CCN(S(=O)(=O)c2ccc(Cl)c(C(F)(F)F)c2)CC1,2.9,4.8,2,-5.6,-0.1,1%,0.64
O=C(NCC1CCN(c2ccc(S(=O)(=O)N3CCOCC3)cc2)CC1)Nc1ccccc1,1.7,-1.2,0,2.8,-0.1,nt,0.64
O=C(Nc1ncc2c(n1)CC(c1ccco1)CC2=O)c1ccccc1 (stereo not given),2.1,44*,-9,-4.0,-0.1,1%,0.67
Cc1ccc(CCNC(=O)CCS(=O)(=O)c2cc3c(cc2C)NC(=O)CO3)cc1,0.2,-4.1,-13,2.1,nt,nt,0.8
Cn1c(=O)cc(OCCCC(=O)NCc2ccc(F)cc2Cl)c2ccccc21,1.2,-2.9,-2,-0.4,0.6,-10%,0.69
COC(=O)C1C(=O)C=C(Nc2ccc(F)cc2F)CC1c1ccccc1 (stereo not given),-14,nt,10,3.3,0.2,nt,0.68
COCCCn1nnnc1SCC(=O)Nc1ccc2c(c1)OCCO2,-0.7,-2.7,8,-0.6,0.4,-1%,0.68
Cc1cc(=O)n(-c2ccc(Cl)cc2)c(=O)[nH]1,1.5,-5.8,7,2.2,0.5,0%,0.67
COc1ccc(CNC(=O)COC(=O)c2ccc(C)c(S(=O)(=O)N3CCOCC3)c2)cc1OC,1.0,6.1,-4,1.7,-0.6,16%,0.68
O=C(O)c1cc(NC(=O)c2ccc(Cl)c([N+](=O)[O-])c2)cc(C(=O)O)c1,0.9,-1.7,-2,-1.8,-1.1,-4%,0.71
COc1ccc(Cl)cc1Nc1nc(-c2sc(NC(=O)c3ccco3)nc2C)cs1,-15,-2.8,-5,14,0.6,-2%,0.71
CCN(CC)S(=O)(=O)c1ccc(C(=O)N(c2ccc(C)cc2)C2C=CS(=O)(=O)C2)cc1 (stereo not given),5.7,3.5,0,-1.7,-0.5,9%,0.69
Cc1cccc(-n2c(-c3ccco3)nc3nc4ccccc4nc32)c1,nt,2.6,nt,nt,0.8,?,nt
Cc1cc(=O)oc2cc(OCC(=O)Nc3ccc(S(=O)(=O)N(C)C)cc3)ccc12,-110,-0.2,-2,1.3,-0.2,-15%,0.69
O=c1[nH]c(SCc2cccc([N+](=O)[O-])c2)nc2[nH]ncc12,5.4,-0.7,2,-0.1,-0.3,-9%,0.71
O=C(Nc1ccccc1C(=O)N1CCCCCC1)c1cccc(S(=O)(=O)N2CCOCC2)c1,1.5,nt,-1,-0.2,nt,-2%,0.73
CC1CN(S(=O)(=O)c2ccc(C(=O)N3CCc4ccccc43)cc2)CC(C)O1 (stereo not given),1.0,1.1,-12,2.6,1.7,nt,0.69
O=S(=O)(NCCSCc1c(Cl)cccc1Cl)c1ccc2c(c1)OCCO2,5.5,2.8,-2,-1.5,1.1,-7%,0.71
O=C(NCc1cccs1)C1CCN(S(=O)(=O)c2ccccc2F)CC1,2.8,2.5,5,3.1,0.5,2%,0.67

# Profiles as entered above. Order of values: UCH37 inh	LANA-H2B inh	Beta2AR agonist	HNF4A DNA FP	A1 inh	Vif A3G	Ecoli growth
# O=C(NCC1CCN(c2ccc(S(=O)(=O)N3CCOCC3)cc2)CC1)Nc1ccccc1 is entered as 1.7	-1.2	0	2.8	-0.1	nt	0.64
# COC(=O)C1C(=O)C=C(Nc2ccc(F)cc2F)CC1c1ccccc1 (stereo not given) is entered as -14	nt	10	3.3	0.2	nt	0.68
# Cc1ccc(CCNC(=O)CCS(=O)(=O)c2cc3c(cc2C)NC(=O)CO3)cc1 is entered as 0.2	-4.1	-13	2.1	nt	nt	0.8

# (further entries)
SMILES,UCH37 inh,LANA-H2B inh,Beta2AR agonist,HNF4A DNA FP,A1 inh,Vif A3G,Ecoli growth
O=C(NCc1cccs1)C1CC(c2ccc(Cl)c(Cl)c2)=NO1 (stereo not given),1.0,1.7,-2,0.1,0.4,8%,0.67
COc1ccc(C)cc1NC(=O)CCS(=O)(=O)c1ccc2c(c1)CCN2C(C)=O,2.7,3.8,-5,1.0,0.4,-8%,0.74
CCc1nnc(NC(=O)CSc2nnc(C)n2Cc2ccccc2)s1,3.0,3.9,2,1.2,0.1,nt,0.66
O=C(COC(=O)CCC1CCCCC1)Nc1ccc(OC(F)F)cc1,3.7,-0.3,-1,-2.6,-0.5,-5%,0.71
O=C(CN1CCCCCCC1)Nc1cc(Cl)cc(Cl)c1,5.1,2.3,4,9.0,1.2,nt,0.63
Cc1cnc(NC(=O)Nc2ccc(OCc3ccccc3)cc2)c(Br)c1,2.4,-7.2,1,-1.0,-0.2,-10%,0.7
Cc1sc2ncnc(SCC(=O)NC3CCCC3)c2c1C,3.5,3.9,-12,5.2,-0.2,-8%,0.62
CCOC(=O)CSc1nc2sc(C)c(C)c2c(=O)n1C,3.9,2.9,3,-2.0,0.0,-2%,0.65
Cn1ncc2nc[nH]c(=O)c21,1.1,-4.8,0,-0.1,0.7,-3%,0.67
Cc1cccc(C)c1OCC(O)CN1CCCCC1 (stereo not given),3.5,0.3,8,-2.5,0.8,-8%,0.69
CC(C)CN(C(=O)COC(=O)c1ccccc1NCc1ccco1)c1c(N)n(Cc2ccccc2)c(=O)[nH]c1=O,-329,-1.4,-3,1.7,0.1,0%,0.68
CC1CCc2c(sc(NC(=O)CSc3nnc(-c4ccccc4)o3)c2C#N)C1 (stereo not given),1.7,-3.8,5,5.3,0.4,?,0.72
CCOc1ccccc1CNC(=O)C1CCN(C(=O)c2sccc2-n2cccc2)CC1,-5.7,1.1,-9,3.4,0.2,0%,0.75
CCOc1ccccc1Nc1nnc(Cc2ccccc2Cl)c(=O)[nH]1,2.8,1.2,5,-1.0,-0.7,10%,0.68
Cc1ccccc1-n1ncc(C(C)NC(=O)c2ccccc2)c1C (stereo not given),0.6,2.4,-6,0.6,-0.8,-9%,0.7
Cc1ccc2c(c1)C(c1ccccc1)N(C(=O)c1cc3ccccc3oc1=O)CC(=O)N2 (stereo not given),2.1,2.1,-15,-1.4,-0.9,20%,0.71
Brc1cc2c(cc1Br)OCCOCCOCCO2,4.8,-6.0,-4,2.2,-1.0,6%,0.66
CCOC(=O)Cc1csc(NC(=O)CSc2nnc(-c3ccncc3)o2)n1,1.2,5.8,4,1.6,0.4,2%,0.65
O=C(CN1CCN(C(C(=O)Nc2ccc(F)cc2)c2ccccc2)CC1)NC1CC1 (stereo not given),1.7,4.9,8,0.2,-0.5,nt,0.72
COc1ccc(C)cc1NC(=O)CSc1nnc(COc2ccc(Cl)cc2)n1Cc1ccco1,1.6,2.0,-4,0.1,0.3,6%,0.68
COc1ccc(N2C(=O)CCC(C(=O)N3CCOCC3)C2c2ccc(F)cc2)cc1 (stereo not given),0.3,-3.9,10,-2.0,0.4,-5%,0.7
CS(=O)(=O)c1ccc2nc(NC(=O)c3ccc(Cl)cc3)sc2c1,nt,2.6,20,0.1,-0.2,-9%,nt
CC(C)(C)c1ccc(C(=O)NC(=O)COC(=O)CCS(=O)(=O)c2ccccc2)cc1,-1.6,1.8,-16,-0.5,-1.0,nt,0.72
COc1ccc(Cn2c(=O)c3[nH]cnc3n(-c3ccccc3C)c2=O)cc1,2.2,-1.7,8,-1.8,-1.1,-6%,0.67
Cc1ccc(-c2csc(NC(=O)CSc3nc4ccccc4o3)n2)cc1,4.5,-0.4,0,1.7,-1.0,-1%,0.67
O=C(CN(CC1CCCO1)S(=O)(=O)c1ccc(S(=O)(=O)NCC2CCCO2)cc1)Nc1ccccc1 (stereo not given),-0.2,-16,7,0.5,0.5,33%,0.69
Cc1cc(Cl)c2oc(C(=O)NC(C)c3ccncn3)c(C)c2c1 (stereo not given),2.0,3.5,2,-2.1,0.0,nt,0.7
Cc1ccc(OCC(=O)Nc2ccccc2C(=O)NC2CC2)cc1C,-3.1,1.5,5,-1.0,0.0,0%,0.73
CC(C)c1ccc(/C=C(\NC(=O)c2ccccc2)C(=O)NCCCn2ccnc2)cc1,3.1,1.4,2,-1.9,-0.5,-4%,0.71
Cc1cc(C)n2nc(SCc3nnc(-c4ccccc4Br)o3)nc2n1,3.4,-2.4,-23,6.6,0.3,-1%,0.67
Cc1[nH]c(=O)[nH]c(=O)c1CSc1nnc([C@H](CC(C)C)NC(=O)OC(C)(C)C)o1,0.0,1.5,15,-0.8,0.5,5%,nt
CCN1C(=O)c2cccc3c(S(=O)(=O)N4CCNCC4)ccc1c23,-294,3.1,-5,1.3,-0.5,nt,0.64
O=C(Cc1ccccc1)NC(c1ccco1)c1c(O)ccc2ccccc12 (stereo not given),-4.1,3.2,-1,3.7,-0.2,-4%,0.62
COc1cc(/C=N/NC(=O)c2cccnc2)ccc1OC(=O)c1ccco1,nt,2.3,0,-0.6,0.1,-2%,nt
Cc1ccc(-c2ccc(/C=C(\C#N)C(N)=S)n2C)cc1,3.9,26*,3,3.3,-0.3,-1%,0.69
CCN(C(=O)c1ccc(S(C)(=O)=O)cc1)C12CC3CC(CC(C3)C1)C2,6.8,-3.2,6,3.3,0.3,18%,0.71
Cc1onc(-c2c(F)cccc2Cl)c1C(N)=S,2.2,3.3,7,2.9,1.0,-10%,0.69
Cc1cc(-n2nc(C)cc2C)n2ncc(-c3ccccc3)c2n1,5.3,0.0,6,-0.6,-0.6,16%,0.68
COc1ccccc1/C=C/C(=O)OCC(=O)N1CCc2ccccc21,-12,-4.7,-5,3.8,1.3,-7%,0.71
COc1ccc(NCC(=O)N/N=C/C=C/c2ccccc2[N+](=O)[O-])cc1,nt,-1.6,4,-1.5,-0.4,?,nt
Nc1nc(SCC(=O)Nc2ccccc2)[nH]c(=O)c1NC(=O)c1cccs1,2.1,0.3,-95,-0.3,-0.1,5%,0.78
Cc1nc(N2CCCCC2)sc1C=O,16,-3.6,nt,nt,0.4,nt,0.65
COC(=O)c1cccnc1SCc1ccccc1,1.3,-5.2,2,-2.2,0.6,-9%,0.69
CCOc1ccc(NC(=O)c2cc(C)nc3ccccc23)cc1,2.5,5.6,-1,-2.0,0.6,6%,0.7
COC(=O)c1ccc(NC(=O)CN(c2ccc3c(c2)OCO3)S(C)(=O)=O)cc1,4.5,-1.3,-4,-2.3,0.0,nt,0.72
O=C(Nc1ccc(F)cc1)c1cc(S(=O)(=O)Nc2ccc(F)cc2)cs1,1.3,0.1,14,-2.0,-0.3,18%,0.63
NS(=O)(=O)c1ccc(CCNCC(=O)N2CCC(Cc3ccccc3)CC2)cc1,1.9,5.8,-7,2.4,0.2,nt,0.66
COc1ccc(C(=O)CSc2nnc(-c3cnccn3)n2Cc2ccco2)cc1,0.7,-1.6,-2,3.8,0.1,-1%,0.69
CC1(C)CC2=C(CO1)C(=S)NC(c1ccccc1)N2CC1CCCO1 (stereo not given),-6.9,-5.9,-4,2.0,1.0,-6%,0.66
CC1CCN(C2CCN(S(=O)(=O)c3ccc(C(F)(F)F)cc3)CC2)CC1,1.5,-1.2,8,-1.2,-0.5,-13%,0.71
CC(=O)Cc1nsc(NC(=O)c2ccc(COc3ccccc3C)o2)n1,nt,-2.0,0,6.2,0.6,-3%,nt
COc1cccc(C(=O)NCCn2ccc3ccccc32)c1,3.3,8.2,10,-0.9,0.3,-1%,0.65
O=C(NC1CCCC1)C(c1ccncc1)N(C(=O)c1ccco1)c1ccc(F)c(Cl)c1 (stereo not given),1.1,2.9,13,2.0,-0.9,2%,0.64
COc1ccc(CN2CCN(C(=O)CCC(=O)Nc3nnc(C(C)C)s3)CC2)cc1F,-1.3,0.1,-1,7.5,-0.3,nt,0.67
O=C(Nc1nccs1)c1ccc(-c2ccc(Cl)cc2)o1,-4.0,5.1,-10,-0.8,-3.9,-7%,0.67
